Bioassay records deposited in PubChem by National Center for Advancing Translational Sciences (NCATS).
A647 fluor – compound fluoresces in the A647 spectral region | Compound fluorescence, A647 channel (570/671 nm), Tris buffer | max dye-equivalent concentration, M | 59,000 tested, under 10 active | AID 592; active means above 1 µM dye equivalent; inconclusive means 0.1 to 1 µM; inactive means 0.1 µM or less;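 also: values scaled relative to a standard on each plate; highest value over a series up to 38 µM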
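Buffer was dispensed, compounds and Alexa 647 standards were pin-transferred, and plates sat 15 min at room temperature. Intensity at 570/671 nm was then converted to dye-equivalent concentration using the plate's A647 standard curve.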
Resorufin autofl – compound fluoresces in the resorufin spectral region | Compound fluorescence, resorufin region 547/598 nm, buffer; hits give high values | max dye-equivalent concentration, M | 0.04% of 59,000 active | AID 588; active = above 10 nM dye equivalent; inconclusive = 1 to 10 nM; inactive = 1 nM or less; a few of its hits are not listed in these tables; also: highest value over a series up to 38 µM
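Read-out: intrinsic compound fluorescence at ex 547/em 598 nm after 15 min at RT in pH 8.0 Tris (100 mM). Values expressed as resorufin-equivalent concentration from per-plate standard series.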
A488 autofl – compound fluoresces in the A488 spectral region; compound autofluorescence, A488 spectral region, dye equivalency; hits give high values; max dye equivalency, M; 0.1% of 59,000 active; AID 591; active = above 10 nM dye equivalent; inconclusive = 1 to 10 nM; inactive = 1 nM or less; about half of its hits are not listed in these tables;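 also: highest value over a series up to 38 µM; compound alone in buffer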
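Read-out: relative fluorescence at 480/540 nm, expressed as Alexa 488 dye-equivalent concentration from a six-point A488 standard included per plate. Conditions: 100 mM Tris, pH 8.0; 15 min incubation, room temperature.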
TSHR agonist – TSH receptor (human) agonism. HEK293-CNG-TSHR cells (CNG channel as cAMP sensor), membrane potential dye, cAMP. Potency, µM (titrated, usually from 57.1 µM), inactives show top-dose activation, hits mostly activators. 0.48% of 73,000 active. AID 926; active = well fitted activation curve of enough size with the parental cells flat; inconclusive = any curve in the parental cells; inactive = parental cells flat and receptor cells flat or falling; also: potency is read from the fitted curve at half-maximal effect; % of control where 0% means no effect; weak receptor curves with flat parental cells got no call and are not listed
Target sequence (P16473 whole entry, looked up): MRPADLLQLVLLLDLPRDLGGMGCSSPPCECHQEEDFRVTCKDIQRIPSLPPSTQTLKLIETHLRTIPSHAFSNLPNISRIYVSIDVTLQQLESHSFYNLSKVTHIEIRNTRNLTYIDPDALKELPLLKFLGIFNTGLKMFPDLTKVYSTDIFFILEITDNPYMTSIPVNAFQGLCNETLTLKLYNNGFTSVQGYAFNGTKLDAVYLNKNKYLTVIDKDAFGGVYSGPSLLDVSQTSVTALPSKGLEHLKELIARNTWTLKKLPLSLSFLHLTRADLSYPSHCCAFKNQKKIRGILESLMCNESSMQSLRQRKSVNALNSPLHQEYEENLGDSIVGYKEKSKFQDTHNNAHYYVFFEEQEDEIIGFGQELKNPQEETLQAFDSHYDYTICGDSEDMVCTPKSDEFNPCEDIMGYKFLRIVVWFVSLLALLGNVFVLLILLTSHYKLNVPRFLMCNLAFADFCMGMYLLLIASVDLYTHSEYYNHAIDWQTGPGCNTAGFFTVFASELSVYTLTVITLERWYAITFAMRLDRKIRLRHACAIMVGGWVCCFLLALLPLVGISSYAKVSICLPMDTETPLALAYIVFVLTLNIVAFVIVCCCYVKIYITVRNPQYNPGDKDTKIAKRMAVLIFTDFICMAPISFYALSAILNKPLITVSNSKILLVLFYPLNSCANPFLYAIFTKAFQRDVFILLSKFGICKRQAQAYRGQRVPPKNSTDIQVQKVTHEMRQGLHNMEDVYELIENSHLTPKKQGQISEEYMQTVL
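cAMP rise detected as CNG-channel membrane depolarization by fluorescent dye (emission 590 nm), 30 min after compound, following 60 min dye loading containing 100 uM RO 20-1724 at room temperature. Cells: TSHR/CNG HEK 293, with parental CNG HEK 293 as control.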
AID923 – qHTS Assay for Allosteric/Competitive Inhibitors of Caspase-1: Spectroscopic Profiling in AFC Spectral Region | AID 923, 2007 | Potency, µM (top dose mostly 57.5 µM), inactives show at the top dose fluorescence increase, actives largely listed as activators | compound fluorescence, AFC spectral region (405/520 nm); almost no hit is shown here | 1.1% of 75,000 active; active = well fitted activation curve with a large enough effect; inconclusive = small, poorly fitted or top-dose-only effect;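 also: potency is read from the fitted curve at half-maximal effect; 0% is about no effect; scaled to a free AFC standard on each plate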
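Titrations up to 57 uM read every 20 sec for 3 min (405/520 nm) with 50 nM caspase 1 and 5 uM Ac-WEHD-AFC, pH 7.5 HEPES buffer. Fluorescence-vs-time intercept gave baseline, scaled against on-plate AFC standard.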
Starred values were filed as active, the others as inactive; i = inactive; ? = inconclusive; . = no result given; [ ] = remark or other dose.

SMILES	A647 fluor	Resorufin autofl	A488 autofl	TSHR agonist	AID923
O=S(=O)(c1cccc(S(=O)(=O)N2CCN(c3ncccn3)CC2)c1)N1CCOCC1	8.3e-09	i	i	-1%	-0.7%
COc1ccc2[nH]c(=O)c(CN(C3CCCCC3)C(c3nnnn3Cc3ccco3)C(C)C)cc2c1 (centres undefined)	2.3e-08	i	i	-17%	19%
Cn1c(=O)cc(OCC(=O)NCc2ccccn2)c2ccccc21	1.6e-08	i	i	1%[11.4 µM]	0.5%
CCOC(=O)c1[nH]c(COC(=O)C2CC(=O)N(Cc3ccccc3)C2)c(C(=O)OCC)c1C (centres undefined)	2.5e-08	i	i	?	0.2%
CCS(=O)(=O)c1ccc2oc(SCC(=O)c3ccco3)nc2c1	1e-09	i	i	4%	-1.2%
Cc1ccccc1-c1nc(CN2CCCC(C(=O)NCc3cccnc3)C2)c(C)o1 (centres undefined)	1e-09	i	i	4%[11.4 µM]	-0.3%
CC1CCCC(NC(=O)c2cn(C)c3ccc(S(=O)(=O)N4CCCC4)cc3c2=O)C1C (centres undefined)	1.7e-09	i	i	.	0.4%
NC(=O)c1ccc(OCC(F)(F)C(F)(F)C(F)(F)C(F)(F)C(F)(F)C(F)F)cc1	2.6e-08	i	i	.	-0.1%
O=C(CC1CCCCC1)NCc1cn2ccsc2n1	1e-08	i	i	10%[11.4 µM]	-1.5%
Cc1ccc2cc(CN(Cc3ccco3)C(=O)c3ccccc3)c(=O)[nH]c2c1C	2.7e-08	i	i	?	-0.7%
O=C(Nc1ccc(-n2nncc2-c2ccco2)cc1)c1ccc(F)cc1	7.5e-09	i	i	6%	0.6%
CCOC(=O)CNS(=O)(=O)CCN1C(=O)c2ccccc2C1=O	.	.	.	3%	0.1%
CCN(CC)c1nc(N)c2c(N)n(-c3ccccc3C)c(=S)c(C#N)c2c1C#N	8.3e-09	i	i	0%	0.2%
CC(C)OP(=O)(c1ccc(N(C)C)cc1)C(O)c1ccccc1F (centres undefined)	1.7e-09	i	i	19%	-2.0%
CCOC(=O)CCC(=O)N1CCOCCN(C(=O)CCC(=O)OCC)CCOCC1	1e-09	i	i	?	0.9%
CC(=O)N1CCC2(CCCN(Cc3cc(C(F)(F)F)cc(C(F)(F)F)c3)C2)CC1	7.1e-09	i	i	?	0.5%
CO[C@H]1C=CO[C@@]2(C)Oc3c(C)c(O)c4c(O)c(c(C=NN5CCN(C)CC5)c(O)c4c3C2=O)NC(=O)C(C)=CC=C[C@H](C)[C@H](O)[C@@H](C)[C@@H](O)[C@@H](C)[C@H](OC(C)=O)[C@@H]1C	4.2e-08	i	i	.	.
Cc1cc(C)n(-c2nc3ccccc3nc2Nc2ccc(CC(=O)O)cc2)n1	.	.	.	65%	2.1%
CCn1c2ccccc2c2cc(NC(=O)CCCN3C(=O)CCC3=O)ccc21	1e-09	i	i	3%	-0.1%
Cn1c(=O)c2c(nc(CN3CCOCC3)n2CCN2CCOCC2)n(C)c1=O	1e-09	i	i	-8%	-1.6%
CC(C)CCNC(=O)NC(=O)CN1C(=O)NC2(CCCCC2)C1=O	1e-09	i	i	7%	-1.0%
CCOc1ncccc1C(=O)OCC(=O)N1CCN(S(=O)(=O)c2ccccc2)CC1	1.9e-09	i	i	12%	-0.3%
CCCNC(=O)NC(=O)CSc1ncc(C(F)(F)F)cc1Cl	1e-08	i	i	-3%	-0.3%
COC(=O)c1c(C)nc(C)c2c(=O)oc3ccccc3c12	.	.	.	3%	-0.6%

Entries above with a CF3 group, in the order listed:
SMILES	A647 fluor	Resorufin autofl	A488 autofl	TSHR agonist	AID923
CC(=O)N1CCC2(CCCN(Cc3cc(C(F)(F)F)cc(C(F)(F)F)c3)C2)CC1	7.1e-09	i	i	?	0.5%
CCCNC(=O)NC(=O)CSc1ncc(C(F)(F)F)cc1Cl	1e-08	i	i	-3%	-0.3%

Following part:
SMILES	A647 fluor	Resorufin autofl	A488 autofl	TSHR agonist	AID923
CC(=O)O[C@]1(C(C)=O)CC[C@H]2[C@@H]3C=C(Cl)C4=CC(=O)CC[C@]4(C)[C@H]3CC[C@@]21C	1e-09	i	i	.	.
COC(=O)c1ccccc1OC(=O)c1ccc(Br)o1	1e-09	i	i	14%	-0.5%
Cc1cc(CNC(=O)Cc2c(F)cccc2Cl)nn1C	1.6e-08	i	i	2%	1.0%
COc1ccc(CCNC(=O)c2sc(=S)n(C)c2N)cc1	1e-09	i	i	-9%	12%
COC(=O)c1ccc(CSc2nnc3sc4ccccc4n23)o1	4.4e-08	i	i	?	1.2%
CC(=O)OC(C(=O)NCc1ccco1)c1cccnc1 (centres undefined)	3.1e-08	i	i	-2%	1.1%
CN(C)c1ccc(N=NS(=O)(=O)O)cc1	.	.	.	?	-1.0%
CCCn1c(=O)c2ccccc2n2c(SCC(=O)/C(C#N)=C(\C)N)nnc12	2.1e-09	i	i	?	-0.1%
CCN(CC)C(=O)CSc1nc(O)cc(=O)n1-c1ccccc1OC	.	.	.	-3%	-0.3%
CCOC(=O)N1CCN(C(=O)C(NS(=O)(=O)c2cccc3nsnc23)c2ccccc2)CC1 (centres undefined)	1.6e-08	i	i	7%	-1.1%
NC(=O)C1CCN(CCC(=O)Nc2ccc(Br)cc2)CC1	2e-09	i	i	.	.
O=C(CN1C(=O)c2ccccc2S1(=O)=O)N1CCN(c2cccc(Cl)c2)CC1	1e-09	i	i	3%	3.4%
CCOc1ccccc1NC(=O)C1CCCN(S(=O)(=O)c2cccc3cccnc23)C1 (centres undefined)	.	.	.	24%	-0.5%
CCOc1ccc(N(CC(=O)NCc2ccco2)S(=O)(=O)c2ccc(OC)c(OC)c2)cc1	.	.	.	3%[11.4 µM]	-0.2%
c1ccc(-c2nn3c(-c4ccncc4)nnc3s2)nc1	3.1e-08	i	i	28%	1.9%
COc1ccc(Cl)cc1CSc1n[nH]c(C)n1	1.1e-08	i	i	-1%	-2.3%
O=C(Nc1nnc(C2CC2)s1)c1cccc(S(=O)(=O)N2CCc3ccccc32)c1	2e-09	i	i	2%	0.3%
CC(=O)C1=C(C)NC(=O)NC1c1ccccc1 (centres undefined)	1.4e-08	i	i	2%	0.6%
Brc1ccc(CSc2nnc(-c3ccccn3)n2Cc2ccco2)cc1	1e-09	i	i	.	2.4%
Cn1ncc(C#N)c1/N=C/N(Cc1ccccc1)Cc1ccccc1	1.3e-09	i	i	?	0.9%
Cc1cc(=O)n2nc(N3CCCC(C(=O)NCCC4=CCCCC4)C3)sc2n1 (centres undefined)	6.3e-09	i	i	1%[11.4 µM]	-0.2%
Cc1c(C(=O)O)oc2c1ccc1ccccc12	1e-09	i	i	3%	0.1%
Cc1noc(C)c1CSc1nnc(-c2ccncc2)n1-c1cccc(Cl)c1C	1e-09	i	i	9%	1.0%
O=C(NCc1csc(-c2ccccc2)n1)c1ccco1	1e-09	i	i	-1%	0.2%
CC(C)(C)NC(=O)CC(CC(=O)O)c1ccccc1 (centres undefined)	.	.	.	-2%	-4.4%
Cn1c(=O)c2c(nc(Sc3n[nH]c(N)n3)n2Cc2ccccc2Cl)n(C)c1=O	3.1e-09	i	i	-1%	0.5%
O=C(O)[C@H]1O[C@H]1C(=O)O	1.8e-09	i	i	-1%[11.4 µM]	0.1%[11.5 µM]
C=CCSC1=C(C#N)C(c2ccccc2Cl)CC(=O)N1 (centres undefined)	.	.	.	17%	2.8%
CN(C)S(=O)(=O)Nc1ccccc1C(N)=O	5.4e-09	i	i	1%	-0.2%
CN(C)C(=O)[C@@H]1C[C@H]1[C@@H](NC(=O)OCc1ccccc1)c1ccccc1	.	.	.	6%	-1.3%
Cc1ccc(Nc2nc(N)nc(CSc3nnnn3-c3ccccc3)n2)cc1	2e-08	i	i	29%	0.6%
Cc1nc2cc(-c3ccc(F)cc3)nn2c(N2CCOCC2)c1C	4.1e-09	i	i	?	-0.5%
O=C(CCN1CCN(CCC(=O)c2ccccc2)CC1)c1ccccc1	2.7e-09	i	i	-1%	1.0%
CCOC(=O)Cn1c(=O)oc2cc(S(=O)(=O)Nc3c(C)cc(C)cc3C)ccc21	.	.	.	-8%[11.4 µM]	-1.2%
COc1ccc(N(Cc2cc3ccc(C)cc3[nH]c2=O)C(=O)c2ccco2)cc1	1.1e-09	i	i	9%	1.4%
OCCN1CCN(c2ncnc3c2sc2nc(N4CCOCC4)c4c(c23)CCC4)CC1	6e-09	i	i	.	-0.5%

By substructure, the compounds so far with a cyano group (4)
SMILES	A647 fluor	Resorufin autofl	A488 autofl	TSHR agonist	AID923
CCN(CC)c1nc(N)c2c(N)n(-c3ccccc3C)c(=S)c(C#N)c2c1C#N	8.3e-09	i	i	0%	0.2%
CCCn1c(=O)c2ccccc2n2c(SCC(=O)/C(C#N)=C(\C)N)nnc12	2.1e-09	i	i	?	-0.1%
Cn1ncc(C#N)c1/N=C/N(Cc1ccccc1)Cc1ccccc1	1.3e-09	i	i	?	0.9%
C=CCSC1=C(C#N)C(c2ccccc2Cl)CC(=O)N1 (centres undefined)	.	.	.	17%	2.8%

Next structures follow:
SMILES	A647 fluor	Resorufin autofl	A488 autofl	TSHR agonist	AID923
COc1ccc(S(=O)(=O)N(CC(=O)NCc2ccco2)C2CCCCC2)cc1OC	1e-09	i	i	-2%	0.8%
CCOC(=O)c1c(NC(=O)CCC(=O)NCc2ccco2)sc2c1CCCC2	3e-09	i	i	10%	1.5%
Cc1nn(-c2ccccc2)c(CC(C)(C)C(=O)O)c1C(=O)O	1.2e-08	i	i	3%	-1.4%
COc1cc(C2N(c3ccc(Cl)c(Cl)c3)C(=O)C3CCCN32)cc(OC)c1OC (centres undefined)	4.4e-09	i	i	9%	0.3%
COc1cc2c(C(=O)N3CCCc4ccccc43)cn(C)c(=O)c2cc1OC	4.3e-09	i	i	24%[11.4 µM]	-0.6%
Cc1ccc(C(=O)CCNc2ccccc2)o1	2.9e-09	i	i	1%	-0.9%
Cc1cc2cc(CNC(=O)c3cc4ccccc4o3)ccc2n1C	2.2e-08	?	i	-5%	3.1%
N#Cc1cn(CC(=O)NCC2CCCO2)c2ccccc12 (centres undefined)	.	.	.	2%[11.4 µM]	0.8%
CN(C(=O)C1CCOC1)c1nnc(-c2ccncc2)s1 (centres undefined)	1.2e-08	i	i	-1%	-0.6%
CCCC=O	.	.	.	-6%	-3.1%
CC(C(=O)N1CCc2ccccc21)N1CCc2ccccc2C1 (centres undefined)	3e-09	i	i	?	1.6%
CCOC(=O)c1ccc(-n2c(=O)[nH]c3ccccc3c2=O)cc1	1e-09	i	i	.	.
CC(=O)Oc1ccc(NC(=O)C2CCCCC2)c(C(=O)O)c1	2.8e-09	i	i	-7%	-1.0%
CCOC(=O)Cc1nnn(CC(=O)OCC)n1	.	.	.	-14%	-0.8%
N#C/C(C(=O)c1ccccc1)=C1/CCCCCN1	2.6e-08	i	i	-3%	-0.3%
CCCCOCCCNC(=O)C1CCCCC1	.	.	.	16%[11.4 µM]	-2.4%
C/C=C/C=C/C(=O)O	.	.	.	-5%	0.7%
CC(C)Cc1nc2oc3c(NCC4CCCO4)ncnc3c2c2c1CCC2 (centres undefined)	4.3e-08	i	i	?	1.9%
COCCNC(=O)COc1cccc(Oc2ccccc2)c1	5.6e-09	i	i	-4%	-1.4%
O=C(CN1CC(c2ccccc2)CC1=O)OCc1ccccc1F (centres undefined)	1.5e-09	i	i	10%	1.7%
Cc1c(N=Cc2cc3c(cc2Cl)OCO3)c(=O)n(-c2ccccc2)n1C	.	.	.	3%	-0.5%
CCN1C(=O)[C@H]2[C@H]3[C@H](O)[C@H](O)C/C(=N/NC(=O)OCc4ccc(OC)cc4)[C@H]3CC[C@@H]2C1=O	.	.	.	1%[11.4 µM]	-1.7%[11.5 µM]
Cc1cc(C)c2c(=O)n(CC(=O)N3CCC(N4CCCCC4)CC3)sc2n1	.	.	.	-5%	0.7%
CCC1(C)Cc2c(sc3nc4n(c(=O)c23)CCS4)CO1 (centres undefined)	1.5e-08	i	i	.	.

This is a subset (hit frequency here may not be typical).
